Screening data: PubChem, Broad Institute
FGF22 binding – binders of human FGF22 protein, primary screen, FGF22 synaptogenesis inhibitor project, biophysical, thermal shift, single point. Fibroblast growth factor 22 (Homo sapiens), Q9HCT0. recombinant FGF22 thermal shift, SYPRO orange fluorescence; percent of sucrose octasulfate shift, DMSO zero. calls only at 9.99 µM. 340,000 compounds, 1.5% hits. AID 651658, 2012;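 active means melting point raised past a set limit in the mean and every replicate; inconclusive means no clear call; three in four hits are not shown here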
Target sequence (Q9HCT0 whole entry, looked up): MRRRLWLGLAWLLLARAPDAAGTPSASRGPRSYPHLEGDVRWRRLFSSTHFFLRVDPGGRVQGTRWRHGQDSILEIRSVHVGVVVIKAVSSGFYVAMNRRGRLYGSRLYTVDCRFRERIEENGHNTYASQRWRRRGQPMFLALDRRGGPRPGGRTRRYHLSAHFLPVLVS
Beta cell apopt – inhibitors of cytokine-induced beta cell apoptosis, primary screen, luminescence; INS-1E cytokine-induced death, ATP luminescence, 48 h; percent of positive-control rescue, neutral wells zero; protection from apoptosis, % (test concentration not listed); 300,000 compounds, 0.8% hits;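 active means all replicates at 75% or more, or half of them and the mean; inconclusive means half reach 75% but not the mean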;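 further: 0% = cytokine-treated negative control wells and 100% = positive control rescue; higher means more ATP so stronger rescue from cytokine killing; wells of about 40 µL received 100 nL stock; the first replicate is given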
AF4-AF9 inh – inhibitors of AF4 peptide binding to AF9, primary screen, biochemical, AlphaScreen, biotin-AF4 peptide, FLAG-AF9, single point. Protein AF-9 (Homo sapiens), P42568. inhibition, % at 10 µM. 350,000 compounds, 0.47% hits;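 active means every replicate reaching a set inhibition limit, whatever the replicate mean, cut at about 25% in these data; inconclusive means mean inhibition reaches that limit but some replicates miss it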;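 further: 0% = plate neutral control median and 100% = total signal loss; the record names both 10 and 1 µM as test concentration; the first replicate is given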
Target sequence (P42568 whole entry, looked up): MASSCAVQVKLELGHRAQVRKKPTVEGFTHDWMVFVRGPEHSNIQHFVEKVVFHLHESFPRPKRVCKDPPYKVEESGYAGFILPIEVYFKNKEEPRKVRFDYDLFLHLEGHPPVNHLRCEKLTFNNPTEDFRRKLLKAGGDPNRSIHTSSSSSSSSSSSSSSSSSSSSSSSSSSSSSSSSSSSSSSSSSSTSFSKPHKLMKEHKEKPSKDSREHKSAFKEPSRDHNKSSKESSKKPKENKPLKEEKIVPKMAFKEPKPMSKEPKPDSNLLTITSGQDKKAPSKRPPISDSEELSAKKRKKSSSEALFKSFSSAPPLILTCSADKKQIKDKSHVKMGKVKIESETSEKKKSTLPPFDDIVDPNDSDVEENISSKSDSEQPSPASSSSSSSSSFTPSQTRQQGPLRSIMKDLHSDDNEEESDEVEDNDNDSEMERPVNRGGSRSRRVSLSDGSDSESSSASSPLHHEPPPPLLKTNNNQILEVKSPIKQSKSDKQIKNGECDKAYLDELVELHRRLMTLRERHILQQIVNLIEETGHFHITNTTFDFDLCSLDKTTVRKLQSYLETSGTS
ALR inh – inhibitors of human ALR sulfhydryl oxidase, primary screen, biochemical, H2O2 detection, HRP-luminol luminescence, single point; inhibition, % (no concentration beside the values); FAD-linked sulfhydryl oxidase ALR (Homo sapiens), P55789; purified ALR, DTT oxidation; AID 485317, 2010; 290,000 compounds, 3.8% hits;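 active means mean and each replicate at 75% or more; inconclusive means only one of the two met; inactive means neither met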;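 further: stock transfer was 7.5 nL into about 7.5 µL; 0% = neutral wells and 100% = wells with inactivated enzyme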
Target sequence (P55789 whole entry, looked up): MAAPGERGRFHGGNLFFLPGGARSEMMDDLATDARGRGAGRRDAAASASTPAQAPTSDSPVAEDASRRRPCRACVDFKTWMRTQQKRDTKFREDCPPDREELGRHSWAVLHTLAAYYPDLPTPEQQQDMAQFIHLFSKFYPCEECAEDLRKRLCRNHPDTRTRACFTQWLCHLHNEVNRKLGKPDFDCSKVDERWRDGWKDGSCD
Calb FLC – C. albicans growth inhibition with fluconazole, primary screen, CaCi-2 strain, Alamar Blue fluorescence. C. albicans CaCi-2 (fluconazole-resistant clinical isolate) + fluconazole, 48 h. growth inhibition, % (concentration not given with the values). 300,000 compounds, 0.57% hits. AID 1979, 2009;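 active means most replicates above 75%; inconclusive means exactly half above 75%; inactive means most below 75%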;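 further: all wells also contain fluconazole at 8 µg/ml as a sub-toxic cotreatment; 0% = median of DMSO wells and 100% = median of geldanamycin control wells; wells of about 8 µL received 7.5 nL stock; the first replicate is given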
RanGTP-Impb inh – inhibitors of RanGTP-importin-beta interaction, primary screen, biochemical, FRET, CFP-Ran, YFP-importin-beta, homogeneous; cell-free CFP-Ran/YFP-importin-beta FRET ratio; 300,000 compounds, 1.1% hits; Ran GTPase (GTP-bound) - importin-beta complex; inhibition, % (concentration not given with the values);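 active means most replicates above 15%; inconclusive means exactly half above 15%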;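 further: 0% = DMSO wells and 100% = Ran loaded with GDP instead of GTP; wells of about 40 µL received 100 nL stock; the first replicate is given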
T cruzi inh – inhibitors of intracellular T. cruzi growth, primary screen, luminescence, NIH3T3 host cells; T. cruzi beta-gal in NIH3T3, 90 h; inhibition, % (no concentration beside the values); 300,000 compounds, 1.4% hits;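 active means mean inhibition across valid replicates above about 55%, limit read from the data; inconclusive means mean below that limit but half or more replicates reach it; inactive means mean below it, under half of replicates reach it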;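 further: signal also drops with host cell toxicity which is not excluded here; 0% = plate median of DMSO wells and 100% = zero luminescence signal; higher percent means less beta-gal luminescence so fewer parasites; stock transfer was 50 nL into about 50 µL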
Ecoli rRNA inh – reduced GFP signal of wild-type E. coli, primary screen, bacterial rRNA inhibitor project, GFP/RFP fluorescence, OD600, single point. AID 720706, 2013. 350,000 compounds, 1.6% hits. E. coli WT GFP vs humanized-ribosome RFP mutants, 24 h; active compounds read low; DMSO median 0, no signal -100. GFP signal change (wild-type ribosome), % (no concentration beside the values);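 active means significant combined selectivity score with lowered wild-type GFP, culture density cut under 30%, mutant RFP and density less affected; inactive means any of these conditions unmet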; further: one replicate is shown; some compounds called inactive have numbers as strong as hits
Ecoli rRNA inh OD600 – also measured in Ecoli rRNA inh; calls as there; OD600 change, %; measured here: OD600 growth;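 optical density of the mix in the first replicate; 0 = DMSO median and -100 = no signal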
Ecoli rRNA inh RFP – also measured in Ecoli rRNA inh; calls as there; RFP signal change, %; measured here: RFP humanized mutant strains;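 first replicate; 0 = DMSO median and -100 = no signal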
Active calls of the source: *; i = inactive; ? = inconclusive; nt = not tested or not shown; & = joins results of further samples. Some of the compounds tested, so the mix of outcomes need not match the whole.

SMILES	FGF22 binding	Beta cell apopt	AF4-AF9 inh	ALR inh	Calb FLC	RanGTP-Impb inh	T cruzi inh	Ecoli rRNA inh	Ecoli rRNA inh OD600	Ecoli rRNA inh RFP
Cc1ccc(CSC2=NCCN2S(=O)(=O)c2ccccc2)cc1	i	-5.3	0.1	4.2	27.8	7.8	40.5	-9.7	-8.3	-1.2
O=C(c1cn(Cc2ccccc2)nc1-c1ccccc1)N1CCN(c2ccccn2)CC1	i	-1.3	1.3	0.0	nt	nt	nt	-33.8	-44.7	-4.8
Cc1cc(C2CC(=O)Nc3ccccc3S2)c(C)s1 (stereo not given)	i	0.7	-6.1	-6.9	-1.0	1.0	-2.5	7.3	-1.9	2.1
COc1ccc(S(=O)(=O)N2CCC(C(=O)NC3CC(C)(C)NC(C)(C)C3)CC2)cc1	i	nt	-1.8	-4.6	-3.7	-0.8	-2.7	8.2	15.9	-2.1
COc1ccc(N(C(=O)c2cccnc2)S(=O)(=O)c2ccc(Cl)cc2)cc1	i	-4.5	0.1	-1.9	0.6	-0.7	-3.8	-1.6	-22.1	-2.8
S=c1[nH]nc(COc2ccc(Cl)cc2)o1	nt	1.6	nt	23.0	-5.7	-0.6	-2.6	nt	nt	nt
CSCCC(=O)N1CCN(CC(=O)N2CCCC2)CC1	i	1.9	-3.9	-3.9	1.8	-2.7	-8.5	6.3	19.0	0.3
O=P(CCCO)(Cc1ccccc1)Cc1ccccc1	i	-3.7	-6.4	nt	-0.4	1.4	-3.7	3.9	9.9	-0.2
S=C1NCCc2ccc(Cl)cc2C1c1ccccc1Cl (stereo not given)	nt	-0.1	nt	-1.7	-37.1	-1.2	5.3	nt	nt	nt
COc1cc(/C=C/C(=O)OCC(=O)Nc2cc(S(=O)(=O)N3CCCCC3)ccc2C)ccc1O	i	-4.4	?	1.7	-2.0	0.9	-6.6	-10.3	-6.8	-6.6
Cc1cc(-c2nc(C)c(C(=O)NNS(=O)(=O)c3ccc(Cl)cc3Cl)s2)no1	i	0.0	0.4	3.8	-6.3	0.3	3.9	nt	nt	nt
CCOC(=O)C1CCCN(C(=O)c2cc(S(=O)(=O)Nc3ccccc3OC)ccc2C)C1 (stereo not given)	i	-6.6	-1.6	-3.0	4.8	4.1	3.3	-4.3	-0.9	0.6
Cn1cnnc1SCC(=O)NCCC1=CCCCC1	i	-2.9	-2.4	2.4	nt	nt	nt	nt	nt	nt
Fc1ccccc1CNc1ccc(Cl)c(Cl)c1	nt	-7.6	nt	5.0	5.4	-0.4	15.3	nt	nt	nt
CCOc1cc(N2CCOCC2)c(OCC)cc1NC(=O)C(C)Oc1ccccc1 (stereo not given)	i	-3.5	29.4*	0.3	nt	nt	nt	-6.5	2.0	-0.5
COC(=O)c1[nH]c2ccc(C)cc2c1NC(=O)CN1CCC(C)CC1	nt	3.4	nt	nt	10.6	1.0	7.6	nt	nt	nt
Cc1ccc(C(c2nnnn2Cc2cccs2)N2CCN(C(=O)c3ccco3)CC2)cc1 (stereo not given)	nt	-1.9	nt	-2.4	-7.5	3.7	6.4	nt	nt	nt
CC(=O)N1CCN(c2ccc(NC(=O)c3cc(Cl)ccc3Cl)cc2)CC1	i	-1.7	-2.1	nt	-11.7	-0.8	2.1	1.7	8.4	2.3
COc1cc2sc3cc(NCCCN4CCOCC4)ccc3c(=O)c2cc1OC	i	-0.5	3.4	99.2*	nt	nt	nt	-10.9	-0.9	-14.4
COc1ccc(CNC(=O)C2CCCN(S(=O)(=O)c3cnc[nH]3)C2)cc1 (stereo not given)	i	-2.5	1.4	-123.3	1.8	0.9	-6.6	8.0	13.4	9.3
COC(=O)N(NC(=O)C(O)(C(C)C)C(C)C)c1ccccc1	i	-0.1	11.8	-3.9	1.0	-2.9	-0.4	8.7	3.4	-1.5
CC(=O)Nc1ccc(NC(=O)CC2SC(=O)N(CC(=O)c3ccccc3)C2=O)cc1 (stereo not given)	i	1.1	-0.1	17.8	9.2	2.1	-9.3	-2.2	2.0	-1.0
O=C(COc1coc(CN2CCN(c3ccccc3)CC2)cc1=O)Nc1ccccc1	i	nt	-0.4	16.1	-6.9	2.9	43.2	5.0	14.6	-2.4
Cc1cc(/C=N/NC(=O)c2cccc([N+](=O)[O-])c2)c(C)n1-c1ccc(Cl)cc1Cl	nt	0.9	nt	11.6	1.3	2.4	2.7	nt	nt	nt
CC(=O)Nc1ccc(S(=O)(=O)NC2CC(=O)N(c3ccc(C)c(C)c3)C2)cc1 (stereo not given)	i	-0.4	-12.2	-3.6	-3.2	-2.8	-0.2	12.6	5.8	5.8
CSCCC(NS(=O)(=O)c1ccccc1F)C(=O)NCCCn1nc(C)cc1C (stereo not given)	i	nt	-38.6	-1.3	4.8	-2.0	-7.2	-1.0	-2.1	-0.3
Cc1cc2oc(=O)c3c(c2cc1OC(=O)c1ccco1)CCCC3	nt	-0.5	nt	-5.4	14.5	-3.3	-4.1	nt	nt	nt
O=C(CSc1ccccn1)Nc1ccc2c(c1)C(=O)c1ccccc1C2=O	i	11.1	-5.8	-6.8	41.4	0.0	-3.9	-11.2	-4.7	3.5
O=C(NCc1ccc(C(F)(F)F)cc1)C1CC(c2ccccc2[N+](=O)[O-])=NO1 (stereo not given)	i	-9.6	5.0	nt	1.3	5.1	4.0	-22.6	-19.4	-2.5
CC(=O)Oc1ccc(/C=N/NC(=S)Nc2ccccc2)cc1	nt	3.4	nt	51.0	-2.8	4.3	-8.3	nt	nt	nt
CC1CC(N(C(=O)C2CC2)c2ccccc2)c2ccccc2N1C(=O)C1CC1 (stereo not given)	nt	-5.1	nt	-4.9	12.4	9.9	7.3	nt	nt	nt
C/C(=N\Nc1ccc2nncn2n1)c1cccs1	i	0.4	-4.0	25.6	2.6	-2.8	3.3	4.6	-1.0	-6.1
O=[N+]([O-])c1cccc(-c2nnc3c4ccccc4c4ccccc4n23)c1	nt	3.3	nt	-17.5	0.7	?	38.3	nt	nt	nt
COc1ccc(N=C2NC(=O)/C(=C\C=C\c3ccco3)S2)cc1	nt	nt	1.0	nt	50.7	3.7	-46.5	0.8	19.4	3.6
CCCc1nnc(NC(=O)CC(=O)OCC)s1	nt	nt	nt	9.6	-0.4	3.0	7.4	nt	nt	nt
CNC(=S)N/N=C/c1c(C)nn(-c2ccc(F)cc2)c1Cl	nt	4.0	-1.7	-5.2	18.2	-4.4	-16.4	6.5	7.5	1.9
CCCCn1c(=O)[nH]c(=O)c2c1nc(-c1ccc(OCCC)c(OCC)c1)n2CCOC	i	1.4	1.7	-1.7	-3.5	-2.6	36.8	13.9	-0.4	0.1
CC(C)(C)/C(Cn1cncn1)=N\OC(=O)Nc1ccc(Cl)cc1	i	0.3	-3.5	nt	-31.7	-2.7	45.3	-33.7	-41.9	-5.3
CCCCC(=O)Nc1ccc(NC(=O)c2ccc([N+](=O)[O-])cc2)cc1OC	i	1.4	0.7	-10.1	-10.6	6.1	9.2	13.8	11.8	-3.9
C=CCc1cccc(CNn2cnnc2)c1O	i	0.2	-0.2	73.2	-1.2	4.3	0.1	22.5	21.4	4.9
CC1CCN(C(=O)c2cc(Cl)nc3ccccc23)CC1	nt	-3.3	nt	0.8	-4.8	0.1	-6.7	nt	nt	nt
COC(=O)c1c(C)oc(C)c(C(=O)OC)c1=O	nt	-10.1	nt	-10.7	-5.2	1.4	-14.2	nt	nt	nt
O=C(NCC(c1ccco1)N1CCCC1)c1sc2ccccc2c1Cl (stereo not given)	i	-1.9	-4.5	-2.7	-8.3	-1.0	-8.8	1.6	-5.2	6.2
C[C@H](CO)N1C[C@H](C)[C@@H](CN(C)C(=O)Nc2ccccc2)Oc2ccc(NC(=O)CCC(F)(F)F)cc2C1=O	i	-3.7	-8.6&-3.9	-3.0	nt	nt	nt	4.5&6.0	5.7&-4.7	-1.1&1.0
Cc1ccc(C(=O)c2c[nH]c(C(=O)NCc3cccnc3)c2)cc1	nt	67.7	nt	46.8	0.0	5.0	-29.0	nt	nt	nt
C=CCNc1nc(N)c([N+](=O)[O-])c(N2CCCCCC2)n1	i	-3.9	0.7	-10.1	8.1	-3.1	1.8	2.9	-22.8	-4.7
C/C(=N\NC(=O)c1cccc(N2CCCC2=O)c1)c1ccc(N)cc1	i	-6.5	-0.4	99.1*	-9.8	1.1	-9.2	5.3	10.9	2.4
Cc1cc(C(F)(F)F)n2[nH]c(=O)c(N=Nc3ccccc3)c2n1	i	-2.5	-2.4	10.4	26.4	2.6	-4.1	3.6	15.0	-3.2
CCn1c(SCC(=O)Nc2cccc(NC(C)=O)c2)nnc1C(C)C	nt	-9.8	nt	-20.6	-3.5	6.1	-4.5	nt	nt	nt
Cc1ccc(-c2csc(NC(=O)c3cccc([N+](=O)[O-])c3)n2)cc1	nt	1.1	nt	4.2	-2.0	0.1	-1.8	nt	nt	nt
C/C(=N\NC(=O)c1ccccc1C)c1cccnc1	i	0.8	-0.8	12.9	11.7	7.1	4.5	24.5	7.5	9.3
COc1ccc(OCC(O)CNC(=O)Nc2cccc3ccccc23)cc1 (stereo not given)	i	0.2	-0.3	-10.9	-6.4	1.1	0.9	-14.2	2.9	2.6
COc1cc(C(=O)NCc2ccc(C)cc2)ccc1OCc1c(C)noc1C	nt	3.2	nt	-3.7	-2.0	0.7	-2.1	nt	nt	nt
CCC(C)(C(=O)NC1CCCC1)N(C(=O)c1cnccn1)c1c(C)n(C)n(-c2ccccc2)c1=O (stereo not given)	nt	-7.9	nt	-7.3	8.1	7.9	-17.7	nt	nt	nt
COC(=O)c1ccc(CNC(=O)C2CCC(=O)N(C3CCCCCC3)C2)cc1 (stereo not given)	i	2.3	-3.5	-64.7	-10.4	-1.8	5.3	5.6	3.3	0.4
COc1ccc(NC(=O)CN2C(=O)NC(CC(C)C)C2=O)cc1S(=O)(=O)N1CCOCC1 (stereo not given)	i	-3.1	0.3	2.0	nt	nt	nt	7.3	16.1	-5.4
O=C(c1ccc2c3c(cccc13)C(=O)N(O)C2=O)N1CCCCC1	nt	-3.8	nt	3.3	?	2.0	-8.8	nt	nt	nt
O=c1c2ccccc2nc(SCc2cccc(F)c2)n1-c1cccc(S(=O)(=O)N2CCCC2)c1	nt	13.9	nt	-9.1	1.0	0.6	49.6	nt	nt	nt
Cc1cc(C)nc(SCc2c(F)cccc2Cl)n1	i	-4.2	-0.2	0.3	-4.9	0.5	7.1	8.0	3.5	-0.3
CN(C)/C=C(\C(=O)c1ccccc1)c1nnnn1-c1ccccc1	i	-1.4	-5.1	-5.0	-3.4	-1.6	-35.3	1.9	1.8	4.2
